Rango release inh: qHTS Assay for Inhibitors of RanGTP induced Rango (Ran-regulated importin-beta cargo) - Importin beta complex dissociation. Potency, µM (doses to about 46.1 µM), for inactives: top-dose activity change, negative = inhibition. Biochemical FRET Rango-importin beta, RanGTP-induced dissociation. 340,000 compounds, 0.071% hits. Snurportin-1 (Homo sapiens) + GTP-binding nuclear protein Ran (Homo sapiens) + Importin …. AID 540253, 2011; active means falling FRET ratio curve, often poorly fitted, with flat reads before Ran was added; inconclusive means other falling curves, or compound fluorescence or quenching; inactive means flat or rising ratio curve;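 note: potency is the fitted concentration of half-maximal effect; % of control where 0% means no effect; nearly all actives have a fitted effect of over 45% in size; -100% = wells without RanGTP and RCC1; the record marks most hits as doubtful in a second field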
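Rango (0.1 uM)–importin beta (0.25 uM) complex; RanGTP-RCC1 trigger; 45 min RT; CFP/YFP FRET read.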
GLA inh pH 4.5: qHTS Assay for Inhibitors of Human alpha-Galactosidase at pH 4.5. activity change, negative = inhibition, % at 105 µM. purified enzyme, 4-MU-alpha-Gal fluorescence, pH 4.5. 230,000 tested, under 10 active. Alpha-galactosidase A (Homo sapiens), P06280; inconclusive = small, poorly fitted or top-dose-only inhibition, or a rising curve; inactive = flat fitted curve, though single readings scatter; no compound was filed as active;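 note: 0% = full activity with enzyme and -100% = basal without enzyme; dose as in the result columns while the protocol names 77 µM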
Rango-impB inh: qHTS Assay for Inhibitors of Rango (Ran-regulated importin-beta cargo) - Importin beta complex formation; Rango CFP/YFP FRET sensor + importin beta, 45 min; Importin subunit beta-1 (Homo sapiens), Q14974; Potency, µM (series often up to 92.2 µM), without a hit: at the top dose inhibition of complex formation; 340,000 compounds, 0.031% hits; AID 540263, 2011; active = rising FRET ratio curve, often small or poorly fitted; inconclusive = mostly compound fluorescence or quenching in the first reads; inactive = flat curves in all reads;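 note: potency is the fitted concentration of half-maximal effect; 0% = DMSO wells and 100% = buffer wells lacking importin beta; nearly all actives have a fitted effect of over 15% in size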
Target sequence (Q14974 whole entry, looked up): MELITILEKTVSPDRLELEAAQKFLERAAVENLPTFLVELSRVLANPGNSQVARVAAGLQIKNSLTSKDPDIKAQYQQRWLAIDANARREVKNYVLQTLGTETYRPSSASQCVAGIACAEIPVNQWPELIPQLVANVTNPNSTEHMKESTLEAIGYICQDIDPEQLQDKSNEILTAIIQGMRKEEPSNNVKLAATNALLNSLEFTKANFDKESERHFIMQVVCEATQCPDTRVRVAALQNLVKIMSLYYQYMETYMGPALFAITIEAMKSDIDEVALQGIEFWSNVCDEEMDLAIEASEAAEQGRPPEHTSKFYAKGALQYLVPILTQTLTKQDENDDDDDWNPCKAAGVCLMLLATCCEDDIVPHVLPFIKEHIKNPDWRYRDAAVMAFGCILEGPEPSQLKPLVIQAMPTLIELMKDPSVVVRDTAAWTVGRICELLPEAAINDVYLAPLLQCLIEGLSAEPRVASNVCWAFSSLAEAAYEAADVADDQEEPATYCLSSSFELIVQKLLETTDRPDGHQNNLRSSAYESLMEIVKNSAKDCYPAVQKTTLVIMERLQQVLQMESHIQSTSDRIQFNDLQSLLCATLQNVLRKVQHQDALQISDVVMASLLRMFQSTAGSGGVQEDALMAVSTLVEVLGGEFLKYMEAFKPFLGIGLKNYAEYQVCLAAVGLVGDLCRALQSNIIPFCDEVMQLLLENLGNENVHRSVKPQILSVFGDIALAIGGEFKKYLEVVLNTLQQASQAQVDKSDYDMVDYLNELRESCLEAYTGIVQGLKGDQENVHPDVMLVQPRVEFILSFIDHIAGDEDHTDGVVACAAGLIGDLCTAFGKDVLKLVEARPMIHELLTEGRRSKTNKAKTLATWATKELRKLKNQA
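FRET biosensor Rango (snurportin 1 IBB between N-terminal EYFP and C-terminal Cerulean), 50 nM in PBS/1 mM DTT/0.02% Tween-20/0.1% BSA, preincubated 5 min RT with compound; 0.125 microM importin beta added, 45 min RT, CFP/YFP FRET ratio read.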
miR-21 FLuc: qHTS Assay for Modulators of miRNAs and/orActivators of miR-21 | Potency, µM (top dose mostly 38.3 µM), for the others: at the highest dose reporter change, positive = more light | HeLa miR-21 FLuc reporter, luciferase, 48 h | 340,000 tested, under 10 active; active = well fitted rising curve with a large enough effect; inconclusive = small, poorly fitted or top-dose-only effect; inactive = no such curve, though single readings can be large or run the other way;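 note: % of control where 0% means no effect; miR-21 action dims this reporter so a rising signal means less miR-21 action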
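HeLa cells stably expressing CMV-driven firefly luciferase with a downstream miR-21 binding sequence, endogenously expressing miR-21, were treated with titrations (up to about 40uM final) for 48 hours at 37 degree Celsius. Luciferase luminescence was read after lysis.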
The depositor's hits bear a star; ? = inconclusive; nt = not tested or not shown; & = joins results of further samples; [ ] = dose if it differs, or a comment. This is a subset; the hit share may differ from the screen's.

SMILES	Rango release inh	GLA inh pH 4.5	Rango-impB inh	miR-21 FLuc
N/C(=N/O)c1nc(N2CCCC2)nc(N2CCCC2)n1	0%	nt	1.5%	nt
Cc1ccc(S(=O)(=O)/N=C(\N)Nc2nc(C)c3ccccc3n2)cc1	-3%	-1	-1.7%	-40%
N#Cc1c2c(c(N3CCN(c4ccccn4)CC3)n3c1nc1ccccc13)CCC2	nt	7	nt	1%
O=[N+]([O-])c1ccc(Sc2nnnn2-c2ccccc2)c(Cl)c1	10%	0	0.0%	?
CCCn1nc(C(=O)Nc2nc3ccccc3[nH]2)c2ccccc2c1=O	3%	1	-0.1%	-2%
c1ccc(-c2cc3c(N4CCN(c5ncccn5)CC4)ncnc3s2)cc1	2%	-3[21.1 µM]	-0.3%	0%
COC(=O)C1CN(C(=O)C(C)Oc2ccc(F)cc2)c2ccccc2O1 (centres undefined)	-8%	nt	-6.6%	1%
O=C(NCc1ccccn1)[C@@H]1C[C@H]1[C@@H](NP(=O)(c1ccccc1)c1ccccc1)c1ccccc1	-15%	7&5	-0.8%	-11%
Cc1cc2cc(CN(C(=O)C3CC3)C3CCCC3)c3nnnn3c2cc1C	0%	0	-0.9%	-2%
COc1ccc(N2CCN(C(c3cc4cc(C)ccc4[nH]c3=O)c3nnnn3Cc3ccccc3)CC2)cc1 (centres undefined)	?	-20	?	2%
O=C(O)c1ccc(OC(F)(F)C(F)C(F)(F)F)cc1 (centres undefined)	1%	2	0.0%	-5%
CC(C)Oc1ccc(C(=O)Nc2ccc(S(=O)(=O)N3CCN(C)CC3)cc2)cc1	-9%	nt	-0.9%	12%
CCCn1nc2cc(C(=O)NCc3ccc(C)cc3)ccc2c1OCC	6%	-4	-0.2%	-4%
O=C(/C=C/c1ccc([N+](=O)[O-])cc1)Nc1cccc(C(=O)Nc2ccccc2C(=O)O)c1	33%	nt	1.6%	9%
CCc1ccccc1NC(=O)CC1SCCNC1=O (centres undefined)	-5%	6	-5.0%	0%
CCCOC(=O)c1ccc2c(c1)C(=O)N(c1ccccc1)C2=O	0%	0	1.6%	-2%
COc1ccccc1-c1oc2ccccc2c1C#CCO	0%	nt	?	nt
CCn1c(SCc2ccc(C(=O)Nc3cc(C)cc(C)c3)cc2)nnc1-c1ccncc1	0%	-10	4.9%	29%
CN(NC(N)=O)c1ncc(C(F)(F)F)cc1Cl	1%	0	-0.6%	-5%
Cc1nnc(NC(=O)c2cccc(S(=O)(=O)N3CCc4ccccc43)c2)s1	-4%	5	-1.3%	-4%
CCCc1cc(N2CCCC(C(=O)NCC)C2)n2ncnc2n1 (centres undefined)	-5%	-2	3.6%	-3%
Cn1cnc(C(=O)NC2CCN(C(=O)OC(C)(C)C)CC2)c1C(=O)NC1CCN(C(=O)OC(C)(C)C)CC1	2%	nt	2.8%	nt
Cc1cc(Nc2ccc(F)c(Cl)c2)n2nc(C)nc2n1	?	-9	5.7%	-10%
O=C(CSc1nnc(CNC(=O)c2ccccc2F)o1)Nc1ccc2c(c1)OCCO2	19%	-1	0.7%	14%
COc1cccc(CNC(=O)C2CCN(S(=O)(=O)N3CCCCC3)CC2)c1	-5%	9	0.1%	-2%
CCc1cccc(C)c1NC(=O)C1CCN(C(=O)c2ccc([N+](=O)[O-])cc2)CC1	-14%	2	-2.9%	0%
Cc1cc(NC(=O)COC(=O)C2CCN(S(=O)(=O)c3c(Cl)cccc3Cl)CC2)no1	19%	-5	0.4%	-2%
O=S(=O)(Nc1ncccn1)c1ccc(NS(=O)(=O)c2cc(Cl)ccc2Cl)cc1	2%	-1	-0.1%	-2%
Cc1cccn2c(=O)c3cc(C(=O)N4CCOCC4)n(C)c3nc12	35%	nt	-0.2%	-3%
O=C1NC(=O)/C(=C/c2ccc(OS(=O)(=O)c3ccc(F)cc3F)cc2)N1	-7%	-1	0.2%	3%
COCCCNC(=O)c1ccc(CS(=O)(=O)c2ccc(Br)cc2)o1	-6%	-11	1.2%	0%
O=C(NCC1CCCO1)c1ccc2c3n(nc2c1)-c1ccccc1CO3 (centres undefined)	-23%	4	-0.8%	-25%
CC(C)CC1(C)NC(=O)N(CCN2C(=O)c3ccccc3C2=O)C1=O (centres undefined)	5%	1	-1.0%	-1%
CCOC(=O)c1sc(NC(=O)CSc2nc(C)cc(C(F)(F)F)n2)c(C#N)c1C	-10%	0	-0.7%	-1%
CCn1cc(C(=O)N2CC(C)CC(C)C2)c(=O)c2cc(S(=O)(=O)N(C)C)ccc21 (centres undefined)	11%	6	10%	4%
COP1(=O)C=C[C@H](N(Cc2ccccc2)S(=O)(=O)c2ccccc2[N+](=O)[O-])[C@@H](C)O1 (some centres undefined)	0%	7	-0.6%	6%
CC1(C)Cc2c(sc3ncn(N)c(=N)c23)CO1	20%	3	3.1%	-1%
Cc1ccc2cc(C(c3nnnn3CC3CCCO3)N3CCCC4(CCCCC4)C3)c(=O)[nH]c2c1 (centres undefined)	-19%	nt	?	nt
CCOC(=O)C1OC2(CCCC2)OC1C(=O)OCC (centres undefined)	-3%	nt	-0.9%	nt
COc1ccc(OCc2cc(C(=O)NCC(C)(C)N3CCOCC3)no2)c(Cl)c1	-5%	nt	-1.8%	-5%
Cn1c(N)c(C(=O)CSc2nnc(C3CC3)n2-c2ccccc2)c(=O)[nH]c1=O	-6%	nt	-1.4%	nt
CCOc1ccccc1NC(=O)c1cccc(NC(=O)C(C)C)c1	-7%	5	-1.4%	3%
Nc1cc(C(F)(F)F)ccc1NCCc1ccccn1	14%	nt	0.2%	3%
COCCN(C(=O)c1ccccc1F)c1c(N)n(Cc2ccccc2)c(=O)[nH]c1=O	-8%	0[21.1 µM]	0.0%	3%
COc1ccc(C(=O)NC(=S)N2CCCCC2c2cccnc2)cc1OC (centres undefined)	3%	nt	0.4%	-5%
c1ccc2c(N3CCCCC3)nnc(N3CCCCC3)c2c1	nt	7	nt	-1%
CN(C(=O)COc1cccc(C#N)c1)C1CCS(=O)(=O)C1 (centres undefined)	?	nt	-1.3%	nt
CC(=O)Nc1ccc(S(=O)(=O)Nc2ccc3c(c2)CCC3)cc1	-15%	nt	-1.9%	13%
Cc1nccn1-c1c([N+](=O)[O-])c(=O)n(C)c2ccccc12	-7%	-3	-0.9%	5%
Cc1nc(N)nc(N/N=C/c2ccccc2)n1	14%	3	-2.5%	-2%

New compounds follow
SMILES	Rango release inh	GLA inh pH 4.5	Rango-impB inh	miR-21 FLuc
Cc1cccc(-n2c(SCC(=O)N3CCCC3)nnc2-c2ccccn2)c1C	-20%	1	1.1%	-3%
COC(=O)c1ccc(Cn2c(CN3CCOCC3)nc3ccccc3c2=O)o1	17%	-5	-0.2%	-1%
CCCCC(=O)OCC(=O)C1(O)Cc2c(O)c3c(c(O)c2C(OC2CC(NC(=O)C(F)(F)F)C(O)C(C)O2)C1)C(=O)c1c(OC)cccc1C3=O (centres undefined)	-16%	nt	8.9%	nt
COc1ccccc1-n1cc(-c2ccc([N+](=O)[O-])cc2)[nH]c1=S	-3%	-2	1.8%	-1%
Nc1nc(-c2ccc3c(c2)CCO3)cs1	6%	7	-2.2%	-54%
COc1ccc(CC(=O)N2CCCc3ccccc32)cc1	21%	?	5.2%	-33%
O=C(c1ccc(Cn2c(=S)[nH]c3ccc(N4CCOCC4)cc3c2=O)cc1)N1CCC(N2CCCCC2)CC1	-16%	4	?	-25%
CCC(CO)Oc1cc(NCc2ccncc2)c2ncn(C(C)C)c2c1 (centres undefined)	-22%	nt	?	nt
CC(OC(=O)c1ccc(=O)n(Cc2ccccc2)n1)C(=O)Nc1cccc(Cl)c1 (centres undefined)	39%	nt	0.0%	nt
CCc1ccccc1S(=O)(=O)Cc1ccc(C(=O)N2CCN(c3ccccc3OC)CC2)o1	0%	-21	-4.0%	?

Exported bar-delimited: part of the list above.
Structure | Rango release inh | GLA inh pH 4.5 | Rango-impB inh | miR-21 FLuc
CCCCC(=O)OCC(=O)C1(O)Cc2c(O)c3c(c(O)c2C(OC2CC(NC(=O)C(F)(F)F)C(O)C(C)O2)C1)C(=O)c1c(OC)cccc1C3=O (centres undefined) | -16% | nt | 8.9% | nt
COc1ccccc1-n1cc(-c2ccc([N+](=O)[O-])cc2)[nH]c1=S | -3% | -2 | 1.8% | -1%
Nc1nc(-c2ccc3c(c2)CCO3)cs1 | 6% | 7 | -2.2% | -54%
COc1ccc(CC(=O)N2CCCc3ccccc32)cc1 | 21% | ? | 5.2% | -33%
O=C(c1ccc(Cn2c(=S)[nH]c3ccc(N4CCOCC4)cc3c2=O)cc1)N1CCC(N2CCCCC2)CC1 | -16% | 4 | ? | -25%
CCC(CO)Oc1cc(NCc2ccncc2)c2ncn(C(C)C)c2c1 (centres undefined) | -22% | nt | ? | nt

(cont.)
SMILES	Rango release inh	GLA inh pH 4.5	Rango-impB inh	miR-21 FLuc
CCn1c(=NC(=O)c2ccc(S(=O)(=O)N(C)C)cc2)sc2cccc(OC)c21	-13%	13	-1.4%	3%
Cc1cccc(NC(=O)c2cc3ccccc3c(=O)o2)n1	1%	nt	-5.1%	nt
CC(C)(C)c1ccc(/C=C/C(=O)c2ccc(NC3=NCCCS3)cc2)cc1	-4%	0	?	9%
O=C(Nc1ccc(NC(=O)c2ccco2)c(Cl)c1)c1ccccc1	-11%	0	1.1%	-47%
COc1cccc(/C=C2/SC(=O)N(CC(=O)N3CCc4ccccc4C3)C2=O)c1OCC(=O)O	-12%	-9	2.1%	5%
CCCC(=O)NC(c1ccc(Cl)cc1)c1ccc2cccnc2c1O (centres undefined)	18%	nt	-0.9%	20%
CN(CC(=O)N1CCN(Cc2ccccc2)CC1)S(=O)(=O)c1cccc2nsnc12	0%	3	-2.5%	-1%
CCCOC(=O)c1ccc(Oc2cn[nH]c2-c2ccc(O)cc2O)cc1	20%	-10	-3.0%	6%
O=C(CSc1n[nH]c(=O)n1Cc1ccccc1)Nc1ccc(F)c(F)c1F	8%	nt	4.5%	6%
Cc1ccc(NC(=O)COC(=O)Cc2cccs2)cc1S(=O)(=O)N1CCOCC1	7%	nt	0.4%	2%
COc1ccc(C(=O)OCn2nnc3ccccc3c2=O)cc1[N+](=O)[O-]	1%	-1	4.0%	1%
C=C(C)C(=O)Nc1cccnc1Oc1ccc(F)cc1	-7%	8	5.7%	3%
Cc1ccc(S(=O)(=O)NC(CC(=O)O)c2ccc(F)cc2)cc1 (centres undefined)	12%	nt	-2.9%	1%
O=C(CN1CCN(c2ccc(C(F)(F)F)cn2)CC1)Nc1ccc2c(c1)OCO2	21%	-6	-0.4%	-4%
COc1ccc2[nH]c3nc(SC(C)C)nnc3c2c1	-12%	-2	3.5%	-4%
CCc1ccc(OCC(=O)N/N=C(\C)c2ccccc2OC(F)F)cc1	3%	7	-1.1%	-7%
COC(=O)CNC(=O)c1cc(-c2ccncc2)nc2ccccc12	25%	nt	2.3%	13%
C=CCNC(=O)NC(=O)COC(=O)CNS(=O)(=O)c1ccc(F)c(F)c1F	9%	-3	-0.2%	-1%
COc1ccc(CCNC(=O)NC2CCCCC2)cc1	10%	-4	0.1%	-16%
CC1CCN(CCCNC(=O)C2CCCN(c3ncnc4c3nc3n4CCCCC3)C2)CC1 (centres undefined)	21%	nt	-0.7%	2%
CCN(CC(=O)Nc1ccccc1C(F)(F)F)C(=O)CCc1nc2sc3c(c2c(=O)[nH]1)CCCC3	-9%	nt	?	nt
CN(C(=O)CSc1nnc(-c2cccnc2)o1)C1CCCCC1	-15%	nt	-0.3%	nt
O=C(Nc1oc2ccccc2c(=O)c1-c1ccc(Cl)cc1)c1ccco1	0%	nt	-1.1%	-10%
COc1ccc(NC(=O)c2nc(C)n(-c3ccc([N+](=O)[O-])cc3)n2)cc1	-6%	-12	1.5%	-1%
CCC(=O)N1N=C(c2cccs2)CC1c1ccc(OC)cc1 (centres undefined)	8%	nt	1.5%	-16%
CCCCNC(=O)CSc1nc2ccc(NC(=O)CSc3nnc(COc4ccccc4C)n3C)cc2s1	-5%	-7	-1.8%	9%

Source: PubChem
